Assay outcomes (PubChem)
RGS16-Gao – modulators of RGS16 binding to Galphao, primary screen, biochemical, human proteins, multiplexed bead flow cytometry | AID 1441, 2008 | bead-based flow cytometry RGS16-Galphao binding, fluorescence; actives lie on both sides | binding response (% of control), % at 10 µM | Regulator of G-protein signaling 16 (Homo sapiens) + Guanine nucleotide-binding protein … | 0.38% of 220,000 active;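 active means below 25% or above 175%, edge rows of some plates excepted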;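 further: Galphao activated by GDP with aluminum fluoride before binding; 100% = wells without compound and 0% = beads without RGS; some results beyond the cut were filed as inactive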
Target sequence (O15492 whole entry, looked up): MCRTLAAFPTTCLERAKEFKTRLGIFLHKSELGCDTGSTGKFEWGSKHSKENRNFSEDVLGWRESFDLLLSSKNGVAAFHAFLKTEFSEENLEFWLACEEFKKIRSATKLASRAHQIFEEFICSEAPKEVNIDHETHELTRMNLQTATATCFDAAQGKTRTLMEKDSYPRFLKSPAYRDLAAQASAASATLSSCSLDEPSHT
Target sequence (P09471 whole entry, looked up): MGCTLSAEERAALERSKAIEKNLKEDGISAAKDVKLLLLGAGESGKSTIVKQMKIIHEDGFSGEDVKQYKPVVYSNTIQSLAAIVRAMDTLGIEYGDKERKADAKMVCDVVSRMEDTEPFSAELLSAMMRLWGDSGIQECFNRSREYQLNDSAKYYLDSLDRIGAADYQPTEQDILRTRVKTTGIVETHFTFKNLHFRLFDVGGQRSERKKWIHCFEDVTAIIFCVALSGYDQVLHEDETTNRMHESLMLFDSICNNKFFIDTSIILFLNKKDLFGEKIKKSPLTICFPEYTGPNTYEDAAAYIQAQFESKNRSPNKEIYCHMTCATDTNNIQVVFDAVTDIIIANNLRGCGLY
GALR2 ag – GALR2 receptor agonists, primary screen, cell-based; Galanin receptor type 2 (Homo sapiens), O43603; GALR2-expressing cells, agonist activation read-out; activation, %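 (tested at 5 µM)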; 0.48% of 140,000 active;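 active means above mean plus 3 SD of all compounds, about 5% in these data, not always enough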;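 further: 0% = vehicle buffer wells and 100% = reference agonist at full effect; tested in CHO reporter cells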
Target sequence (O43603 whole entry, looked up): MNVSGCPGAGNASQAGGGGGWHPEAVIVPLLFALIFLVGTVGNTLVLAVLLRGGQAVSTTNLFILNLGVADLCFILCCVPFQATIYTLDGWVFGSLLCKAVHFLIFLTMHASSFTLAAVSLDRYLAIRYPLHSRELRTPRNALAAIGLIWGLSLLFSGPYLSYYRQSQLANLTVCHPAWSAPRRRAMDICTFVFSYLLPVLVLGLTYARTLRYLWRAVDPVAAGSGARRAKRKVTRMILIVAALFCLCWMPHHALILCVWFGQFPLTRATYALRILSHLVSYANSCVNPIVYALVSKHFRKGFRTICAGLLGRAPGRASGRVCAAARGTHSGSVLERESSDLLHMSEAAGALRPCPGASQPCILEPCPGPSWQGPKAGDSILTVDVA
PKD1 kinase inh – inhibitors of human PKD1 kinase, biochemical, fluorescence polarization | Serine/threonine-protein kinase D1 (Homo sapiens), Q15139 | PKD1 kinase fluorescence polarization assay | inhibition, %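 (about 10 µM by stock and volumes)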 | 0.056% of 200,000 active | AID 797, 2007;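 active means inhibition of 50% or more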;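 further: controls were vehicle for no effect and a reference inhibitor for full effect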
HSV replic up – enhancers of HSV replication in host cells, fold increase, host cell viability. 0.005% of 220,000 active. maximum fold increase. HSV replication augmentation in cells;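 active means peak rise of 1.5-fold or more in the series; tested in PC3 cells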;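 further: first round at 10 µM; read as green reporter fluorescence; hits show the peak of a series up to 25 µM; 1 = signal of infected wells without compound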
Insulin prom inh – inhibitors of insulin promoter-driven GFP, primary screen, imaging, TRM-6 cells (human fetal islet line), eGFP reporter, cell count; 0.9% of 130,000 active; AID 1273, 2008; reporter expression induced with tamoxifen; inhibition, % at 2 µM;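 active means inhibition above the mean plus 3 SD, with well images judged a real hit on visual review, cut at about 60% in these data, passing the limit was not always enough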
Insulin prom inh cell count – recorded beside Insulin prom inh, whose call it bears; normalized cell count, %; measured here: cell count, toxicity; reference of the scale not given here;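 cells exposed to compound for 48 h; stained nuclei by imaging scaled within each plate; lower means fewer cells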
HSV replic up primary fold – recorded beside HSV replic up, whose call it bears; fold increase; compound at 10 µM; measured here: primary screen fold increase 10 uM; tested in PC3 cells;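 GFP signal in the first replicate; 1 = infected wells without compound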
Numbers without * were called inactive; i = inactive; . = not tested or not shown.

SMILES	RGS16-Gao	GALR2 ag	PKD1 kinase inh	HSV replic up	HSV replic up primary fold	Insulin prom inh	Insulin prom inh cell count
CCOc1ccc(NC(=O)/C(=C\c2ccc(OC(C)=O)c(OC)c2)NC(C)=O)cc1	113	-2.1	2	i	0.86	-11	103
O=C(O)c1ccc(NC2=Nc3cccc4cccc2c34)cc1	100	.	.	i	0.98	.	.
COc1ccc(CCn2c(-c3ccco3)nc3nc4ccccc4nc32)cc1	103	1.7	-1	.	.	-179	162
O=C(COC(=O)Cn1cnc2ccccc21)Nc1cc2c(cc1Cl)C(=O)c1ccccc1C2=O	99	.	4	i	0.65	-45	174
O=C(CCSc1ccccc1)Nc1ccccc1C(=O)N1CCCC1	101	0.0	1	i	0.93	15	137
C=CCn1c(NCc2ccc(N(C)C)cc2)nc2ccccc21	80	-3.7	-12	.	.	0	105
COC(=O)c1ccc2c(=O)n(CCCCCC(=O)N3CCN(c4ccccc4)CC3)c(=O)[nH]c2c1	101	-1.4	-24	i	0.94	.	.
N#Cc1ccc(NC(=O)Nc2cccc(C#N)c2)cc1	88	.	.	i	1	.	.
Cc1[nH][nH]c(=O)c1C(c1ccc(-c2ccccc2C(=O)O)o1)c1c(C)[nH][nH]c1=O	97	.	-8	i	0.92	.	.
Cc1ccc(S(=O)(=O)Nc2ccc(=O)n(Cc3ccc(Cl)c(Cl)c3)c2)cc1	101	3.0	16	i	0.99	-23	59
COc1ccc2c(c1)c(=O)c(C(=O)c1ccc(C)cc1)cn2CC(=O)Nc1ccc(F)cc1	103	-0.1	-8	.	.	17	133
COC(=O)CSc1nc2ccccc2o1	112	-2.1	9	i	1.1	18	118
O=C(COC(=O)c1ccc(Cl)c(S(=O)(=O)N2CCN(c3ccc(F)cc3)CC2)c1)Nc1cccc(Cl)c1	122	-0.8	0	i	0.96	29	76
Oc1ccccc1C=NC1=NN(c2cccc(C(F)(F)F)c2)CC1	107	-3.2	-3	i	0.77	67	126
O=C(COc1ccccc1)Nc1ccc2c(c1)Cc1cc(NC(=O)COc3ccccc3)ccc1-2	101	0.2	-2	i	0.92	.	.
O=C(NCc1ccccc1)C1CCN(S(=O)(=O)c2cc([N+](=O)[O-])ccc2Cl)CC1	105	-0.9	1	i	0.95	13	113
Cc1c(NC(=O)Cn2[nH]c(=O)c3ccccc3c2=O)c(=O)n(-c2ccccc2)n1C	96	-3.1	-7	i	0.93	i	51
O=C(Nc1ccc2oc(-c3ccc(F)cc3)nc2c1)c1ccccc1F	98	-1.7	-8	i	0.95	9	111
CCOC(=O)c1c(NC(=O)CN2C(=O)NC3(CCCCC3)C2=O)sc(C)c1-c1ccc(C)cc1	105	-0.7	-3	i	0.97	.	.
Cc1occc1-c1nnc(SCC(N)=O)n1Cc1ccccc1	105	-1.5	-4	i	1	37	104
Cc1ccc2nc(C)c(C(=O)N/N=C/c3ccccc3[N+](=O)[O-])cc2c1	111	-1.0	-10	i	0.87	-2	111
CCCC(=O)Nc1cc(=O)[nH]c2ncnn12	80	-2.5	-3	i	0.76	0	124
O=C(/C=C/c1ccccc1Cl)NCCc1ccccc1	96	0.3	-12	i	1.1	.	.
CCOC(=O)C1CCN(C(=O)c2ccccc2NS(=O)(=O)c2ccc(F)c(F)c2)CC1	96	0.9	0	i	1	-7	88
Cc1ccc(NC(=S)NCc2cccs2)cc1	104	0.7	0	i	1	.	.

Next part
SMILES	RGS16-Gao	GALR2 ag	PKD1 kinase inh	HSV replic up	HSV replic up primary fold	Insulin prom inh	Insulin prom inh cell count
COC(=O)c1cccc(NC(=S)N2CCCCC2)c1	99	.	-4	i	0.93	-10	142
CCN(CC)CCCN(C(=O)c1cccs1)c1nc(-c2ccc(OC)cc2)cs1	104	0.1	-12	i	0.83	.	.
CCN(CC)CCCNC(=O)c1cc(Sc2nnc(C)s2)nc2ccccc12	103	0.1	0	i	1	-17	119
CCCCN(C(=O)CSc1nnc(-c2ccccc2OC)n1C)c1c(N)n(Cc2ccccc2)c(=O)[nH]c1=O	99	-0.6	-6	i	0.92	-30	59
O=c1cc(-c2ccc(O)c(O)c2)oc2cc(O)c(C3OC(CO)C(O)C(O)C3O)c(O)c12 (configuration not stated)	84	.	22	i	0.77	.	.
CCOc1ccc(C(CC(=O)O)NC(=O)COc2ccccc2)cc1OC (configuration not stated)	107	.	-9	i	0.92	.	.
CN1C(=O)c2ccccc2NC(=O)[C@]12O[C@@H]2c1cccc(O)c1	98	.	.	i	1.1	.	.
COc1ccc(-c2sc(NC(=O)c3ccc(C)cc3)nc2-c2ccc([N+](=O)[O-])cc2)cc1	100	-2.3	-3	i	0.94	20	131
COc1cc(/C=N/n2cnnc2)ccc1OCCSc1ccc(C)cc1	95	-3.7	-5	i	0.98	-68	141
CCOc1ccc(NC(=O)CN2CCN(CC(=O)c3ccc(OC)c(OC)c3)CC2)cc1	103	-1.8	-11	i	0.85	12	109
O=C(CSc1ccccn1)N1CCN(c2ncc(C(F)(F)F)cc2Cl)CC1	99	.	.	i	0.98	.	.
CC(C)OCCCn1c(=S)[nH]c2ccc(N3CCOCC3)cc2c1=O	105	-0.6	-5	i	0.9	3	101
CCOC(=O)c1ccc(NC(=O)CN2C(=O)NC3(CCC(C)CC3)C2=O)cc1 (configuration not stated)	111	.	1	i	0.88	58	122
CC1(C(=O)NC2CCCCCCC2)CCC(=O)N1Cc1cccnc1 (configuration not stated)	98	-2.8	-3	i	1.1	.	.
Cc1ccc(CNC(=O)C2CCCN(S(C)(=O)=O)C2)cc1 (configuration not stated)	105	-0.1	3	i	0.98	-43	68
CC(C(=O)Nc1cccnc1)N1C(=O)C2C3C=CC(C3)C2C1=O (configuration not stated)	98	-2.6	-13	i	0.83	-21	94
Cc1noc(C(=O)N2CCN(c3ccc(F)cc3)CC2)c1Cl	103	-0.7	-4	i	0.82	.	.
CCOc1ccccc1NC(=O)C(OC(=O)c1cc(C)oc1C)c1ccccc1 (configuration not stated)	67	0.0	-1	i	1.2	-6	71
CCOC(=O)C(C)Oc1ccc(NC(=O)C(Cl)(Cl)Cl)cc1 (configuration not stated)	102	.	.	i	1	.	.
COc1ccc(CCNC(=O)C2CCN(S(=O)(=O)N3CCCCCC3)CC2)cc1OC	101	-1.4	-2	.	.	.	.
CCn1cc(C(=O)NCc2ccc3c(c2)OCO3)c(=O)c2cc(S(=O)(=O)N(C)C)ccc21	101	-1.9	-12	i	0.85	0	88
CC(C)c1ccc(C2C3=C(COC3=O)Nc3cc4c(cc32)OCO4)cc1 (configuration not stated)	96	.	12	i	0.91	.	.
O=C(CCc1ccc(S(=O)(=O)N2CCOCC2)cc1)Nc1ccc2c(c1)OCCO2	94	.	.	i	0.98	.	.
CC(C)(OC1OC(CO)C(O)C(O)C1O)[C@H]1Oc2ccc3ccc(=O)oc3c2[C@H]1O (some centres not stated)	103	-1.5	-7	i	0.86	33	121
CCOC(=O)c1c(C)nc2c(c1-c1ccccc1)C(=O)c1ccccc1-2	97	0.0	-6	i	0.92	-37	128

Continued:
SMILES	RGS16-Gao	GALR2 ag	PKD1 kinase inh	HSV replic up	HSV replic up primary fold	Insulin prom inh	Insulin prom inh cell count
O=C(CSc1nnc(-c2ccccc2)o1)Nc1ccccc1F	107	-1.3	-7	i	0.91	.	.
O=C(CSc1ccccc1Cl)N1CCC(c2nc3ccccc3s2)CC1	101	-0.5	-2	i	0.84	-6	107
COc1ccc(/C=C(\C#N)c2n[nH]c(Cn3cncn3)n2)cc1	103	.	-2	i	1.1	.	.
Cc1[nH]n(-c2ccccc2)c(=O)c1C=Nc1cccc2cccnc12	115	-0.6	-18	i	0.64	-74	50
O=C(C(=C1NCCN1)n1cncn1)c1ccccc1	108	-1.6	0	i	1.1	-127	57
O=c1cc2c(nn1Cc1ccc(Cl)cc1Cl)-c1ccccc1CC2	61	-2.2	3	i	1.1	.	.
COc1ccc(CCN2C(=O)CC(N3CCN(S(=O)(=O)c4ccccc4)CC3)C2=O)cc1OC (configuration not stated)	100	.	-3	i	0.9	.	.
CCOC(=O)c1sc(NC(=O)c2c(OC)cccc2OC)nc1C	111	-0.3	-6	i	0.97	-25	174
CCCCn1c(N2CCC(Cc3ccccc3)CC2)nc2c1c(=O)[nH]c(=O)n2C	100	0.5	1	i	0.89	.	.
Cc1ccccc1CN1CCN(CC(=O)NCCCN2CCN(c3ccc(F)cc3)CC2)C1=O	99	0.8	-2	i	0.86	12	90
CC(C)C(O)(C#CCN1CCCCC1)c1ccccc1 (configuration not stated)	103	-1.4	-2	i	1	7	56
O=C(CNC(=O)c1ccc(F)cc1)N/N=C/c1cn[nH]c1-c1ccccc1	103	0.2	-2	i	1.1	23	104
COc1ccc(OC)c(NC(=O)c2ccc3nc(-c4ccccc4)c(-c4ccccc4)nc3c2)c1	103	0.2	3	i	0.94	.	.
COc1ccccc1N1CCN(C(=O)COc2ccc(Cl)cc2)CC1	102	-1.5	12	i	1	19	75
O=C(NC(c1ccccc1)C(Cl)Cl)c1ccccc1 (configuration not stated)	118	0.2	-8	i	0.88	.	.
C=CCSc1nc(C)c(CC=C)c(=O)[nH]1	34	-1.7	-4	i	0.81	-26	116
CC(=O)N/C(=C\c1ccccc1)C(=O)NCc1ccc2c(c1)OCO2	93	.	-3	i	0.95	-71	94
CCCNC(=O)c1ccccc1NC(=O)c1ccc(CSc2ccccc2)cc1	92	1.1	1	i	1	10	80
O=C(O)COc1ccccc1/C=C1\SC(=O)N(Cc2ccc(F)cc2)C1=O	83	.	-5	i	0.99	-53	53
C=CCc1ccc(OCCCOc2ccc(C)cc2OC)c(OC)c1	99	-2.8	6	i	0.94	-3	154
COc1ccc(OC)c(/C=N/Nc2nncn2/N=C/c2cc(OC)ccc2OC)c1	70	0.6	-13	i	0.69	-29	92
Cc1ccc(-n2c(C)nc3ncnc(-c4ccccc4)c32)cc1	100	0.1	2	i	0.95	-23	112
COc1ccc(S(=O)(=O)N(CC(=O)NC2CC2)c2ccc(C)cc2)cc1OC	104	-0.2	5	i	1.1	0	101
O=C(CNC(=O)c1cccc(Br)c1)NCCc1nc2ccccc2[nH]1	112	-0.5	-1	i	0.69	0	79
CCN(CC)S(=O)(=O)c1ccc(C)c(NC(=O)CN2CCN(C)CC2)c1	104	.	.	i	0.91	.	.
Cc1ccn(CCC(=O)N2CCCC(CCC(=O)NCc3ccc(F)c(F)c3)C2)n1 (configuration not stated)	102	.	-3	i	1.2	.	.
CC(C)c1ccc2oc(=O)cc(CN3CCN(c4ccc(F)cc4)CC3)c2c1	111	-0.5	10	i	0.88	.	.

Gathered by group, those above containing fluorine (13)
SMILES	RGS16-Gao	GALR2 ag	PKD1 kinase inh	HSV replic up	HSV replic up primary fold	Insulin prom inh	Insulin prom inh cell count
COc1ccc2c(c1)c(=O)c(C(=O)c1ccc(C)cc1)cn2CC(=O)Nc1ccc(F)cc1	103	-0.1	-8	.	.	17	133
O=C(COC(=O)c1ccc(Cl)c(S(=O)(=O)N2CCN(c3ccc(F)cc3)CC2)c1)Nc1cccc(Cl)c1	122	-0.8	0	i	0.96	29	76
Oc1ccccc1C=NC1=NN(c2cccc(C(F)(F)F)c2)CC1	107	-3.2	-3	i	0.77	67	126
O=C(Nc1ccc2oc(-c3ccc(F)cc3)nc2c1)c1ccccc1F	98	-1.7	-8	i	0.95	9	111
CCOC(=O)C1CCN(C(=O)c2ccccc2NS(=O)(=O)c2ccc(F)c(F)c2)CC1	96	0.9	0	i	1	-7	88
O=C(CSc1ccccn1)N1CCN(c2ncc(C(F)(F)F)cc2Cl)CC1	99	.	.	i	0.98	.	.
Cc1noc(C(=O)N2CCN(c3ccc(F)cc3)CC2)c1Cl	103	-0.7	-4	i	0.82	.	.
O=C(CSc1nnc(-c2ccccc2)o1)Nc1ccccc1F	107	-1.3	-7	i	0.91	.	.
Cc1ccccc1CN1CCN(CC(=O)NCCCN2CCN(c3ccc(F)cc3)CC2)C1=O	99	0.8	-2	i	0.86	12	90
O=C(CNC(=O)c1ccc(F)cc1)N/N=C/c1cn[nH]c1-c1ccccc1	103	0.2	-2	i	1.1	23	104
O=C(O)COc1ccccc1/C=C1\SC(=O)N(Cc2ccc(F)cc2)C1=O	83	.	-5	i	0.99	-53	53
Cc1ccn(CCC(=O)N2CCCC(CCC(=O)NCc3ccc(F)c(F)c3)C2)n1 (configuration not stated)	102	.	-3	i	1.2	.	.
CC(C)c1ccc2oc(=O)cc(CN3CCN(c4ccc(F)cc4)CC3)c2c1	111	-0.5	10	i	0.88	.	.
